MgrA DNA FP – S. aureus MgrA activity modulators, primary screen, biochemical, S. aureus Newman, fluorescence polarization; AID 602314, 2012; actives 0.13% (n = 84,000); inhibition, %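 (about 10 µg/mL by stock and volumes)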; MgrA-DNA binding;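 active = above 50% in either of two replicates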;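 also: 0% = protein plus DNA without compound and 100% = DNA alone without protein; higher means less MgrA bound to DNA so lower polarization; one replicate is shown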
S aureus helic – inhibitors of S. aureus replicative helicase, primary screen, biochemical, fluorescence unwinding readout; inhibition, %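 (tested at about 80 µM)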; actives 0.05% (n = 120,000); replicative DNA helicase (DnaC/DnaB), Staphylococcus aureus; purified S. aureus helicase, fluorescence unwinding assay; about half of the hits fall short of the stated cut;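 active = both duplicates at 50% or more, or one of them with a favoured structure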;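 also: 0% = mean of negative control wells and 100% = mean of positive control wells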
Numbers without * were called inactive; / = no result given. This is a subset, so the mix of outcomes need not match the whole.

SMILES | MgrA DNA FP | S aureus helic
O=C1NN(C(=O)Nc2ccc(Br)cc2)[C@@H](c2ccccc2)[C@@H]1c1ccccc1 | 0.1 | /
Cc1ccc(NS(=O)(=O)CC23CCC(CC2=O)C3(C)C)cc1 (stereo unspecified) | 0.9 | -7.0
Nc1ccccc1C(=O)NCc1ccc2c(c1)OCO2 | 4.5 | -3.0
O=S(=O)(CCSc1nccc(-c2cccs2)n1)c1ccc(Cl)cc1Cl | -3.1 | /
O=C(Nc1nc(-c2ccc(Cl)c(Cl)c2)cs1)C1CC1 | 4.8 | 11.0
Cc1cc(C(=O)O)ccc1N/C=C1\CCCC(C)C1=O (stereo unspecified) | 1.9 | -15.0
CCOC(=O)c1ccc(N2C(=O)CSC2c2ccccc2)cc1 (stereo unspecified) | -0.4 | /
COc1ccc(/C=N/NC(=O)c2sc(C)nc2C)cc1 | / | 21.0
COc1ccc(CCNc2cc(=O)oc3ccccc23)cc1OC | / | 4.0
COC(=O)c1ccc(Cn2nc(C)c(Cl)c2C)cc1 | 2.3 | -24.0
CCCNC(=O)C1CCN(C(=O)c2cc3sccc3n2Cc2ccc(Cl)cc2)CC1 | / | 10.0
CCN1C(=O)c2ccccc2S(=O)c2ccc(C(=O)N3CCc4ccccc4C3)cc21 (stereo unspecified) | / | 3.0
CCOC(=O)CN1NC2(CCCCCCC2)NC1=S | / | -26.0
CC(=O)Oc1cc2c(C(=O)NC3CC(C)(C)NC(C)(C)C3)c(C)oc2c2ccccc12 | / | 9.0
CCN1C2=C(C(=O)CCC2)C(c2cccc(O)c2)C2=C1CCCC2=O | 0.2 | 11.0
Cc1ccc(S(=O)(=O)NCCSc2nncn2C)cc1 | / | 5.0
O=c1cc(-c2cccs2)oc2ccccc12 | -2.1 | /
Cc1ccccc1-c1nc2cc(NC(=O)C3CC3)ccc2o1 | 0.8 | -16.0
Cc1noc2ncnc(N(C)Cc3ccccc3)c12 | / | -20.0
CC(C)NC(=O)CSc1nccc(-c2cccs2)n1 | -1.2 | /
O=C(CSc1nc2ccccc2c(=O)n1-c1ccccc1)N1CCN(CCO)CC1 | -1.8 | 18.0
O=C(NC1CCS(=O)(=O)C1)c1ccc(-c2ccccn2)s1 (stereo unspecified) | -1.9 | /
CCOCc1cnc(C)nc1NC(C)=O | / | -3.0
Cc1c(C(=O)O)nn(-c2ccccc2)c(=O)c1C#N | / | 8.0
NC(=O)c1ccccc1Sc1ccccc1 | 0.2 | /
COc1ccccc1S(=O)(=O)Cc1ccc(C(=O)NC2CCCCCC2)o1 | -0.2 | 8.0
CC[N+](C)(CC)Cc1ccccc1 | -1.2 | 0.0
COCCN1Cc2cccc(C(=O)NCC3CCN(CC(C)C)C3)c2C1=O (stereo unspecified) | / | 5.0
Cc1cc(C(=O)O)cc(=O)[nH]1 | -1.1 | /
CCSCCOC(=O)C1=C(C)NC2=C(C(=O)CC(c3ccc(OC)cc3)C2)C1c1ccc(OC)cc1 (stereo unspecified) | -2.0 | /
CCn1c(C(=O)OC)cc2sc(Cl)cc21 | -1.1 | 11.0
CC(C)=C(C#N)c1nc2ccccc2n1C | -0.9 | -12.0
CS/C(=N\S(=O)(=O)c1ccc(-n2nc(C(F)(F)F)cc2-c2cccs2)cc1)N1CCCCC1 | -1.7 | /
Cc1nn(-c2ccccc2)c2sc(C(=O)NN3CCOCC3)cc12 | 2.9 | 15.0
CN(Cc1ccccc1)c1nnc(NC(=O)c2cc(-c3ccc(Br)cc3)on2)s1 | 0.9 | -9.0
CCOC(=O)c1c(C(C)C)csc1N | -0.7 | /
COc1ccc(C2C(=O)c3ccccc3C2=O)cc1 | -1.0 | /
O=C(CSc1n[nH]c(=O)[nH]c1=O)c1ccc(Cl)cc1 | / | 5.0
COC(=O)c1sccc1NS(=O)(=O)c1ccc(C)cc1 | -1.6 | /
O=C([C@@H]1CCCN1C(=O)c1cccs1)N(CC1CCCO1)C1CCS(=O)(=O)C1 (stereo partly specified) | / | 4.0
Cc1c(NS(=O)(=O)N2CCCCC2)c(=O)n(-c2ccccc2)n1C | 1.4 | 4.0
NC1(CC(=O)O)CCCCC1 | / | 9.0
O=C(Cc1ccccc1)Sc1nc2ccccc2[nH]1 | -1.8 | 14.0
Oc1ccc(/C=N/NC(=S)NCC2CCCO2)cc1 (stereo unspecified) | / | 10.0
O=C(c1cc(C2CC2)[nH]n1)n1ccnc1 | 8.2 | 14.0
Cc1cc(-c2c(C(=O)NN3CCOCC3)c(C)nn2-c2ccccc2)no1 | / | -20.0
c1ccc2c(c1)CCN(Cc1ccncc1)C2 | -4.8 | 10.0
COC(=O)c1n[nH]n(-c2ccc(C(C)C)cc2)c1=O | 0.4 | /
Nc1ccnn1C1CCCC1 | -0.5 | 5.0
Cc1c(C(=O)O)sc2sc(C(=O)O)c(C)c12 | 3.4 | /

Four entries from above, with each value named:
> c1ccc2c(c1)CCN(Cc1ccncc1)C2
  MgrA DNA FP = -4.8	S aureus helic = 10.0

> COC(=O)c1n[nH]n(-c2ccc(C(C)C)cc2)c1=O
  MgrA DNA FP = 0.4	S aureus helic = /

> Nc1ccnn1C1CCCC1
  MgrA DNA FP = -0.5	S aureus helic = 5.0

> Cc1c(C(=O)O)sc2sc(C(=O)O)c(C)c12
  MgrA DNA FP = 3.4	S aureus helic = /

Following part:
SMILES | MgrA DNA FP | S aureus helic
CN(Cc1ccc(Cl)cc1Cl)Cn1ccn(C)c1=S | / | -6.0
CCOc1ccc(S(=O)(=O)N(CC(=O)Nc2ccccc2C(=O)OC)c2ccccc2)cc1 | / | 6.0
CCC1CCCCN1C(=O)COC(=O)c1cnc(Cl)c(Cl)c1 (stereo unspecified) | -1.2 | 16.0
c1ccc(OCCSc2nc3ccccc3o2)cc1 | -1.8 | -4.0
COc1ccc(S(N)(=O)=O)cc1C(=O)Nc1ccc(N2CCOCC2)cc1 | / | -9.0
COc1cccc(-c2cc(C(=O)Nc3cccnc3)on2)c1 | / | 20.0
Cc1nc(C)c(S(=O)(=O)NCc2ccc(N3CCN(C)CC3)cc2)s1 | -2.5 | /
COc1ccc(C(=O)Nc2c(N)nc(SCC(=O)NC3CCCCC3)[nH]c2=O)cc1 | / | -3.0
O=C1CC(C(=O)NC2CCCCC2)C(c2ccccc2)O1 (stereo unspecified) | -0.4 | -8.0
Cc1oc2ccc(OC(=O)C(C)C)cc2c1C(=O)OC(C)C | / | -4.0
O=C(CCn1c(SCC(=O)NCc2ccccc2)nc2cc3c(cc2c1=O)OCO3)NCc1ccc2c(c1)OCO2 | / | -1.0
CCN1C/C(=C\c2ccc3c(c2)OCO3)C(=O)/C(=C/c2ccc3c(c2)OCO3)C1 | -3.7 | -12.0
COc1ccc(C2=NOC(CN3C(=O)c4ccccc4S3(=O)=O)C2)cc1 (stereo unspecified) | / | 35.0
O=C(O)COc1nsnc1N1CCOCC1 | -0.7 | -2.0
COc1ccc(Br)c(C(=O)NNC(=O)c2ccccc2N)c1 | -2.0 | /
O=C(c1ccc(Nc2nc3ccccc3n3nnnc23)cc1)N1CCc2ccccc2C1 | / | -82.0
COc1nc(C)nc(NC(=O)NN)n1 | / | 9.0
COc1cccc(OC)c1C(=O)N=c1sc2cc(S(C)(=O)=O)ccc2n1C | 1.3 | 3.0
O=C(CN(Cc1ccco1)S(=O)(=O)c1ccccc1)Nc1ccccc1 | / | -9.0
Cn1nccc1NC(=O)Nc1ccc(Cl)cc1 | / | -12.0

Pulled by structure from the list above:
SMILES | MgrA DNA FP | S aureus helic
CCN1C/C(=C\c2ccc3c(c2)OCO3)C(=O)/C(=C/c2ccc3c(c2)OCO3)C1 | -3.7 | -12.0
COc1ccc(Br)c(C(=O)NNC(=O)c2ccccc2N)c1 | -2.0 | /
COc1cccc(OC)c1C(=O)N=c1sc2cc(S(C)(=O)=O)ccc2n1C | 1.3 | 3.0
Cn1nccc1NC(=O)Nc1ccc(Cl)cc1 | / | -12.0
O=C(c1ccc(Nc2nc3ccccc3n3nnnc23)cc1)N1CCc2ccccc2C1 | / | -82.0

The results go on.
SMILES | MgrA DNA FP | S aureus helic
CN(C(=O)COc1cc(C(F)(F)F)nn1C)c1ccccc1 | 0.1 | /
COc1ccc(CNC(=O)c2cn(CC(C)C)c(=O)c3cc(OC)c(OC)cc23)cc1 | -0.6 | 7.0
Cc1ccc(/C=N/N(C)C2=NCCN2)o1 | -0.5 | 6.0
COc1cc(OC)cc(-c2nnc(SC(C)C(=O)NC3(C#N)CCCCC3)o2)c1 (stereo unspecified) | / | 0.0
COC(=O)c1cc(-c2ccc(C)cc2)n[nH]1 | / | 36.0
CCOC(=O)c1ccccc1NCn1c(=S)oc2ccccc21 | 2.2 | 3.0
CC1=Nc2cc(C(=O)N3CCCCCC3)ccc2Sc2ccccc21 | / | 3.0
Cc1[nH]nc2nc3c(c(OC(=O)c4ccccc4)c12)c(=O)n(C)c(=O)n3C | -1.4 | 11.0
Cc1cc(C)n(-c2ccc(N=NC3=C(O)CCCC3=O)cc2)n1 | / | -19.0
Nc1cc(N)nc(SCc2ccc(Cl)cc2)n1 | -0.7 | 0.0
CC1(C)CC2CC(C)(CN2C(=O)C2CCN(S(=O)(=O)c3cccs3)CC2)C1 (stereo unspecified) | / | 0.0
COCc1cc(C)nc(SCC(N)=O)c1C#N | -0.9 | 8.0
O=C(COc1cc2oc(=O)c3c(c2cc1Cl)CCC3)N1CCCC1 | 0.0 | -7.0
CC1CC(OC(=O)C(O)c2ccccc2)CC(C)(C)N1C (stereo unspecified) | 0.0 | /
c1cncc(CNCc2ccco2)c1 | -1.8 | /
O=C(Nc1cccnc1)c1ccc(Oc2cc(Cl)cc(Cl)c2)o1 | 2.6 | /
Cc1ccc(-c2n[nH]c3c2CCC3)cc1 | -2.3 | /
CCOC(=O)c1c(CN2CCOCC2)n(-c2ccccc2)c2cc(Br)c(O)c(CN(C)C)c12 | -1.5 | /
Cc1noc(C)c1NC(=O)Nc1cc(C(F)(F)F)cc(C(F)(F)F)c1 | / | -41.0
NC(=O)CSc1ncc(-c2ccccc2)[nH]1 | 1.0 | -17.0
CCC(=O)Nc1cc(NC(=O)c2ccco2)ccc1C | -1.6 | 9.0
CC(C)=CCC(C)(C)C1OCCN1C(=O)c1ccccc1 (stereo unspecified) | 0.0 | 9.0
Cc1cc(C)cc(CC(CC(=O)Nc2nccs2)C(=O)Nc2nccs2)c1 (stereo unspecified) | / | -1.0
O=C1/C(=C/c2ccccc2)CC/C1=C1\SCC(=O)N1c1ccccc1 | / | -8.0
CCOc1cccc(C2c3c(oc4cc(C)c(C)cc4c3=O)C(=O)N2CCCN(C)C)c1 (stereo unspecified) | / | 20.0
CCC1CCC(C(=O)O)CC1 (stereo unspecified) | -0.6 | /
CCOC(=O)c1cccc(NS(=O)(=O)c2cc(-c3cc(C)[nH]n3)ccc2C)c1 | / | -1.0
CC(=O)Oc1cc(C(F)(F)F)ccc1C(=O)O | -1.2 | /
CC(C)Sc1n[nH]c(=O)n1-c1cccc(C(F)(F)F)c1 | 0.8 | /
COC(=O)c1c(N)n(-c2ccc(OC)cc2)c2nc3ccccc3nc12 | / | -6.0
CC(Sc1nnc(-c2ccc3c(=O)n4c(nc3c2)CCCCC4)o1)C(=O)Nc1ccc(F)cc1 (stereo unspecified) | / | 3.0
COC(=O)c1ccc(OCC(O)Cn2cnc3ccccc32)cc1 (stereo unspecified) | / | 1.0
O=C(Nc1ncn[nH]1)c1ccc2c(c1)S(=O)(=O)c1ccccc1C2=O | / | 15.0
Cc1oc(-c2ccc(Cl)cc2)cc1-c1ccn[nH]1 | / | -17.0
Cc1ccc(Sc2cccc3nc(N)nc(N)c23)cc1 | -2.8 | /
CCC1CC(CSC(=N)N)OC1=O (stereo unspecified) | / | 5.0
N#C/C=C1\SCC(=O)N1CC(O)c1ccc(Cl)cc1 (stereo unspecified) | / | -14.0
C=CCn1c(CCCO)nc2ccccc21 | / | 9.0
CC1=C(C(N)=O)C(c2ccccc2)n2ncnc2N1 (stereo unspecified) | / | 21.0
O=C(NCCCN1CCCC1=O)c1sc2ccccc2c1Cl | 0.0 | 18.0
COc1ccc(Cl)cc1C(=O)CSc1nnnn1C1CCCCC1 | -2.2 | 3.0
Cc1cccc(-n2ncc3c(N4CC(C)OC(C)C4)ncnc32)c1 (stereo unspecified) | / | -14.0
CC(=O)Nc1ccc(NC(=O)CN(C)S(=O)(=O)c2ccc(F)cc2)cc1 | 3.0 | 19.0
CN1C(=O)C(=Cc2ccccc2OS(=O)(=O)c2ccccc2[N+](=O)[O-])C(=O)N(C)C1=O | 1.0 | /
Cc1ccccc1N1C(=O)C(Cc2ccccc2)S/C1=C(/C#N)C(N)=O (stereo unspecified) | / | -22.0
Cc1ccnn1-c1ccc(Cl)cc1 | -2.3 | /
CC(C)COC(=O)CN1C(=O)C2C3c4ccccc4C(c4ccccc43)C2C1=O (stereo unspecified) | / | 12.0
Cn1c(CNC(=O)c2ccccc2F)nnc1SCC(=O)Nc1nnc(C2CCCCC2)s1 | -2.8 | -5.0
COc1ccc(S(=O)(=O)N2Cc3ccccc3CC2C(=O)NCc2ccc3c(c2)OCO3)cc1 (stereo unspecified) | / | -4.0
CN(CCNC(=O)c1nc(-c2cccnc2)no1)C1CCCCC1 | / | 21.0

Later entries:
SMILES | MgrA DNA FP | S aureus helic
COc1ccc(CCNC(=O)CCn2c(=O)c3cccn3c3cccnc32)c(OC)c1 | / | -9.0
O=C(/C(=N\N=C\c1ccc(Cl)cc1)c1ccccc1)c1ccccc1 | 0.7 | /
CCCCn1c(SCc2nc(-c3ccccc3Cl)no2)nc2ccccc2c1=O | / | -6.0
CCc1ccc2c(CN3CCc4ccccc43)cc(=O)oc2c1 | / | 17.0
